Screening results: PubChem, ICCB-Longwood Screening Facility, Harvard Medical School
LANA-nucl inh – LANA-nucleosome interaction inhibition; AID 720717; z-score (concentration not given with the values); FITC-LANA1-23 / chicken nucleosome fluorescence polarization; stronger effect = lower value; 51,000 compounds, 0.3% hits;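 active = both repeat wells score below -2 in polarization z-score versus plate sample wells, excluding overly bright wells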;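 also: 100 nL library stock added to about 30 µL; numbers are from one replicate; some results filed as inactive read as strong as hits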
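test system = FITC-LANA peptide and chicken nucleosomes | amount = 240 nM purified chicken nucleosomes (480 nM peptide binding sites), final | reagent = 50 nM FITC-LANA1-23 probe | medium = TEN-BT buffer, pH 7.5 | doses = single compound addition by pin transfer, 100 nL per well | timing = 10–45 min, room temperature | detection = fluorescence polarization | repeats = duplicate plates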
Ab BasE inh – BasE siderophore biosynthesis inhibition. 84,000 compounds, 0.1% hits. purified BasE, fluorescence polarization binding displacement. inhibition, % (test concentration not listed);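 active = both replicates above 25% with normal brightness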;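 also: 0% = negative plate control signal and 100% = positive plate control signal; stock transfer was 100 nL into about 30 µL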
Numbers without * were called inactive; . = no result given; & = joins results of further samples.

SMILES | LANA-nucl inh | Ab BasE inh
CC(Sc1nnc(-c2cccs2)n1-c1ccccc1)C(=O)NC1(C#N)CCCCC1 (stereo not given) | . | 2.4
CCCNC(=O)c1noc2c1CCc1cc(OC)ccc1-2 | -0.392 | 0.4
C/C(CCc1ccc2c(c1)OCO2)=N\N=C(/N)SC1CC(=O)N(c2ccccc2)C1=O (stereo not given) | -0.046 | 1.1
Cc1[nH]c2ccc(F)cc2c1CC(=O)O | -0.714 | 1.1
C/C(=C\c1ccccc1)c1ccc2c(c1)CCN2C | . | 2.4
CSc1ccc(/C=N/N(C)S(=O)(=O)c2ccc(C)cc2)cc1 | . | -1.1
CC(C)C(=O)Nc1c2c(nn1-c1ccc(Oc3ccccc3)cc1)CSC2 | . | -0.7
COc1ccc(C2=NN3COc4ccccc4C3C2)cc1 (stereo not given) | . | 0.6
Cc1ccc2nc(SCCC3OCCO3)nc(=O)n2c1 | -0.752 | 1.8
COc1ccccc1-c1coc2c(CN(C)C)c(O)ccc2c1=O | 0.364 | 1.0
CCC(=O)N(c1nnc(SC(C)c2nc3ccccc3c(=O)[nH]2)s1)C1CC1 (stereo not given) | . | -9.8
COc1ccc(CNC(=O)c2ccc(CS(=O)c3ccc(OC)cc3)o2)cc1 (stereo not given) | -0.332 | -3.2
COc1ccccc1NC(=O)CN(Cc1ccco1)C(=O)Cc1ccc(Cl)cc1 | . | 1.4
CN1C/C(=C\c2ccccc2)C(=O)/C(=C/c2ccccc2)C1 | 0.531 | .
CCCCCCOc1ccc(C2C(C#N)=C(C)NC(C)=C2C#N)cc1 | . | 1.1
CC1=Nc2ccccc2/C1=C/c1sc(=O)n(-c2ccccc2)c1O | . | 2.9
Cc1ccc2nc(C)cc(Nc3ccccc3)c2c1 | 0.466 | -6.2
O=C1CN(C(=O)C2CCC2)CCN1 | -1.27 | 0.9
O=C(c1sc2ccccc2c1Cl)n1ccc(-c2cccs2)n1 | 0.138 | 0.8
O=C(Nc1nccs1)c1cccc(S(=O)(=O)N2CCCCC2)c1 | . | -0.6
CC(Sc1nnc(N)s1)C(=O)Nc1ccc(F)c(F)c1F (stereo not given) | . | 1.5
COc1ccc2c(c1)C(=O)N(CCc1ccc(S(=O)(=O)NC(=O)NC3CCCCC3)cc1)C(=O)C2(C)C | 0.831 | -1.2
CN[C@@H]1[C@H](O[C@H]2[C@H](O[C@@H]3[C@@H](O)[C@H](O)[C@@H](N=C(N)N)[C@H](O)[C@H]3N=C(N)N)O[C@@H](C)[C@]2(O)C=O)O[C@@H](CO)[C@H](O)[C@H]1O | 0.1&0.854 | -1.1
NC(=O)N1c2ccccc2C=Cc2ccccc21 | 1.06&0.339&0.506&-1.19 | -1.9&-1.7
CCOc1ccccc1C(=O)Nc1cccc(C)c1 | . | 0.2
SMILES | LANA-nucl inh | Ab BasE inh
COc1ccc(Nc2cnnc3c(Cl)cccc23)cc1OC | . | -2.7
Cc1ccc(C(=O)OCC(=O)N2CCCC2)cc1NC(=O)c1ccco1 | . | -1.2
COc1ccc(S(=O)(=O)NC2(C(=O)O)CCCCC2)cc1 | -0.474 | 1.6
CC/C(C)=N/N1C(=O)c2ccccc2NC1(C)CC (stereo not given) | 0.323 | 5.2
CS(=O)(=O)c1ccccc1C(=O)Nc1cc2c(cc1C(=O)O)OCCO2 | . | 1.3
Cn1c(N)c(Br)c(-c2ccc(F)cc2)c(C#N)c1=O | . | -1.8
CC1(C)CC2=NN(c3ccccc3)P(=O)(OCC3CCCO3)C2=C(N2CCCCC2)C1 (stereo not given) | . | -0.8
CCOc1cc(/C=N/NC(=O)C(OC)c2ccccc2)ccc1O (stereo not given) | 0.557 | 1.5
Cc1c2cnn(-c3ccccc3)c(=O)c2c(C)n1C(C)C(=O)NCc1ccccn1 (stereo not given) | 0.99 | -1.6
CCCCC1CC(C)(C(=O)Nc2ccc(S(N)(=O)=O)cc2)OC1=O (stereo not given) | -0.112 | 0.7
COc1ccc(N2CCN(C(=O)C34CC5CC(CC(C5)C3)C4)CC2)cc1 | . | 2.8
Nc1nc(-c2sccc2Cl)cs1 | 0.0045 | .
CC(OC(=O)c1ccccc1Nc1ccc(SC(F)F)cc1)C(N)=O (stereo not given) | . | 3.1
O=C(CCc1nc2cccnc2n1-c1ccccc1)Nc1ccc2c(c1)OCO2 | 0.205 | 3.3
CC1CC(NC(=S)Nc2ccc(I)cc2F)CC(C)(C)C1 (stereo not given) | . | -0.8
CN1CCCN(Cc2cc(C(C)(C)C)c(O)c(C(C)(C)C)c2)CC1 | -0.128 | 3.1
COC(=O)c1cn(CC(=O)NC2CCCCCC2)c2ccccc12 | 2.77 | -2.4
COc1ccc(OCCNS(=O)(=O)Cc2ccccc2)cc1 | . | 3.5
COc1ccc(Nc2nnc(SC3CCOC3=O)s2)cc1 (stereo not given) | . | 0.8
O=c1[nH]c2cc3c(cc2[nH]1)OCCO3 | 0.867 | 3.0
CSc1ncc(C(=O)OC(C)c2nc3ccccc3c(=O)[nH]2)n1-c1ccc(F)cc1 (stereo not given) | . | 1.9
CCn1c(-c2cc(OC)ccc2OC)csc1=Nc1ccc(O)cc1 | . | 1.1
Cc1ccc(C)c(NC(=O)C(c2ccccc2)N2CCCCC2C(N)=O)c1 (stereo not given) | . | -0.4
CC1(C)CC(=S)C=C(N2CCOCC2)C1 | . | 0.8
C=C1c2ccccc2NC(=O)N1c1ccccc1 | 0.0235 | 5.5

An excerpt from above in order of molar mass, descending:
SMILES | LANA-nucl inh | Ab BasE inh
CC1(C)CC2=NN(c3ccccc3)P(=O)(OCC3CCCO3)C2=C(N2CCCCC2)C1 (stereo not given) | . | -0.8
Cc1c2cnn(-c3ccccc3)c(=O)c2c(C)n1C(C)C(=O)NCc1ccccn1 (stereo not given) | 0.99 | -1.6
O=C(CCc1nc2cccnc2n1-c1ccccc1)Nc1ccc2c(c1)OCO2 | 0.205 | 3.3
CS(=O)(=O)c1ccccc1C(=O)Nc1cc2c(cc1C(=O)O)OCCO2 | . | 1.3
Cc1ccc(C)c(NC(=O)C(c2ccccc2)N2CCCCC2C(N)=O)c1 (stereo not given) | . | -0.4
Cc1ccc(C(=O)OCC(=O)N2CCCC2)cc1NC(=O)c1ccco1 | . | -1.2
COc1ccc(N2CCN(C(=O)C34CC5CC(CC(C5)C3)C4)CC2)cc1 | . | 2.8
CN1CCCN(Cc2cc(C(C)(C)C)c(O)c(C(C)(C)C)c2)CC1 | -0.128 | 3.1
COc1ccc(Nc2nnc(SC3CCOC3=O)s2)cc1 (stereo not given) | . | 0.8
Cn1c(N)c(Br)c(-c2ccc(F)cc2)c(C#N)c1=O | . | -1.8
COc1ccc(OCCNS(=O)(=O)Cc2ccccc2)cc1 | . | 3.5
COc1ccc(Nc2cnnc3c(Cl)cccc23)cc1OC | . | -2.7
COc1ccc(S(=O)(=O)NC2(C(=O)O)CCCCC2)cc1 | -0.474 | 1.6
CC/C(C)=N/N1C(=O)c2ccccc2NC1(C)CC (stereo not given) | 0.323 | 5.2
C=C1c2ccccc2NC(=O)N1c1ccccc1 | 0.0235 | 5.5
CC1(C)CC(=S)C=C(N2CCOCC2)C1 | . | 0.8
O=c1[nH]c2cc3c(cc2[nH]1)OCCO3 | 0.867 | 3.0

Another view of two compounds above.
CCn1c(-c2cc(OC)ccc2OC)csc1=Nc1ccc(O)cc1
  LANA-nucl inh: .; Ab BasE inh: 1.1

Cn1c(N)c(Br)c(-c2ccc(F)cc2)c(C#N)c1=O
  LANA-nucl inh: .; Ab BasE inh: -1.8

Next structures follow:
SMILES | LANA-nucl inh | Ab BasE inh
CC(C)c1[nH]nc2oc(=N)c(C#N)c(-c3c(O)[nH]c4ccc(Br)cc34)c12 | 0.269 | 1.2
O=C(NC1CCCc2ccccc21)c1ncoc1-c1cccs1 (stereo not given) | 2.54 | -6.0
CSc1nc(N)n(-c2cc(Cl)cc(Cl)c2)n1 | . | 1.7
COc1cc(OC)c(C(=O)NC(C)C2CCCO2)cc1OC (stereo not given) | 0.218 | 2.5
O=C1CCc2cc(S(=O)(=O)NC(C(=O)NC3CCCC3)c3ccccc3)ccc2N1 (stereo not given) | -1.21 | -0.6
C[C@@H]1O[C@@H](OC[C@H]2OC(Oc3c(-c4ccc(OCCO)c(OCCO)c4)oc4cc(OCCO)cc(O)c4c3=O)[C@H](O)[C@@H](O)[C@@H]2O)[C@H](O)[C@H](O)[C@H]1O (stereo not given in full) | -0.323 | 0.5
O=C(O)c1c(CNCc2cccs2)c2ccccc2n1Cc1ccccc1 | 1.19 | -0.4
C[N+]1(CCOc2ccccc2)Cc2ccccc2C1 | . | 0.9
c1ccc2c(c1)NCCS2 | 0.742 | 1.9
NC(N)=Nc1ccc(Cl)cc1 | . | -2.1
CCCNc1sc(S(C)(=O)=O)nc1S(=O)(=O)c1ccc(Cl)cc1 | 2.01 | -0.7
c1ccc(-c2nc3cc(Cc4ccc5oc(-c6ccccn6)nc5c4)ccc3o2)nc1 | 3.22 | -2.6
COCc1c(C(=O)Nc2ccc(OC)cc2OC)oc2ccccc12 | . | 3.2
CCOC(=O)C1CCCN(Cc2ccc3ccccc3c2)C1 (stereo not given) | -0.408 | -0.5
COc1cccc(-c2nnn(Cc3nc4ccc(Cl)cc4n3CCO)n2)c1 | . | -1.6
CC(CSc1nnnn1-c1ccccc1)Cn1c(Br)nc2c1c(=O)[nH]c(=O)n2C (stereo not given) | 1.85 | -0.2
Cc1ccc(Cl)cc1N1CCN(CC(=O)c2ccc3[nH]ccc3c2)CC1 | 2.31 | -2.9
CC(C)(C)C(=O)Cn1nnc(N2CCOCC2)n1 | . | 0.1
CC(O)CNc1nc2ccccc2n1Cc1ccc(C#N)cc1 (stereo not given) | . | 2.7
O=C(CCN1C(=O)c2ccccc2C1=O)OCc1ccco1 | . | 5.3
CS(=O)(=O)c1ccc(C(=O)OCc2ccccc2F)cc1 | . | -0.3
O=C(OCC(=O)N1N=C(c2ccc(Cl)cc2)CC1c1ccco1)c1ccccc1 (stereo not given) | . | 0.5
N#C/C(=C\C=C\c1ccccc1)c1cccc(Cl)c1 | . | 4.6
COc1cc(OC)cc(C(=O)OCc2c(C)noc2C)c1 | . | 0.6
CC(C)COC(=O)Oc1ccc(Br)cc1 | 2.21 | 0.5
SMILES | LANA-nucl inh | Ab BasE inh
Cc1[nH]nc(N=CC2=C(O)CCCC2=O)c1-c1ccccc1 | -1.21 | -1.0
CCCCn1c(=O)c(CCC(=O)OCc2nnc(-c3cc4c(s3)CCCC4)o2)nc2ccccc21 | . | -0.5
CCn1nc(C(=O)OCc2csc(C)n2)c2ccccc2c1=O | . | 2.4
CCn1c(=NC(=O)c2ccc(OC(C)C)cc2)sc2cc3c(cc21)OCO3 | -1.83 | 1.4
Cc1ccc(/C=C/C(=O)O)s1 | . | 1.5
Cc1ccc(Sc2ccc(/C=C(\C#N)C(N)=O)o2)cc1 | 0.289 | -1.0
O=C(Nc1ccc(OCC(O)Cn2c3ccccc3c3ccccc32)cc1)c1ccccc1 (stereo not given) | . | 1.6
CC(OC(=O)c1ccccc1Oc1ccccc1)C(=O)NC1CC1 (stereo not given) | . | 0.2
O=C(O)/C=C/c1cc(Cl)c2c(c1)OCO2 | . | 1.8
Cc1cccc(NC(=O)CC2OCCN(Cc3ccccc3)C2=O)c1 (stereo not given) | -0.311 | 4.0
COc1cccc(C(=O)Nc2sccc2C#N)c1 | . | -7.5
Cc1c(C)n(CC(O)CNCc2ccco2)c2ccccc12 (stereo not given) | 0.393 | 4.6
O=C1C2C3C=CC(C3)C2C(=O)N1CN(Cc1ccccc1)CN1C(=O)C2C3C=CC(C3)C2C1=O (stereo not given) | 0.133 | 2.0
CCOc1ccc(-c2nc(-c3cc(C)n(C)c3C)cs2)cc1OC | . | 2.1
Cc1nn(-c2ccccc2)cc1/C=N/NC(N)=S | 0.024 | 1.1
CCN1C(=O)Cc2cc(S(=O)(=O)N3CCOCC3)ccc21 | 1.88 | -4.3
O=C(/C=C/c1ccco1)N1CCN(S(=O)(=O)c2ccccc2)CC1 | . | 0.5
CC(=O)OCc1ccc(/C=C/C(=O)O)o1 | . | 2.0
Cc1c2cnn(CC(=O)NCCCN3CCOCC3)c(=O)c2c(C)n1Cc1ccccc1F | 0.929 | 0.1
C/C(=N\NC=O)c1ccccn1 | . | -2.8
CCOC(=O)c1cnn(-c2ccccc2)c1-c1ccncc1 | 0.285 | 0.0
O=C(CCc1ccc(O)cc1)c1c(O)cc(O)cc1O[C@@H]1O[C@H](CO)[C@@H](O)[C@H](O)[C@H]1O | -0.414 | .
COc1ccc(CNCc2ccc(C)cc2)cc1 | . | -6.6
C/C(=N\O)c1ccc2c(c1)CCO2 | . | 0.2
C(=N\N1CCOCC1)/c1ccccn1 | . | -4.1
SMILES | LANA-nucl inh | Ab BasE inh
OC(Cn1cnc2ccccc21)Cn1c2ccccc2c2ccccc21 (stereo not given) | -0.287 | 2.1
CC(=NCc1cccnc1)c1c(C)[nH]n(-c2nc3ccccc3s2)c1=O | -1.04 | 1.5
O=C(CCS(=O)(=O)c1cccc2nonc12)N1CCN(C(c2ccccc2)c2ccc(Cl)cc2)CC1 (stereo not given) | 0.0445 | 1.7
CC(C)Cn1c(O)c(Nc2ccc3c(c2)=NC(=O)N=3)c2ccccc21 | . | -1.6
O=C(COc1ccccc1)Nc1ccccc1N1CCCC1 | -0.809 | 1.9
Cc1ccccc1NC(=O)C1CC(=O)OC1(C)C (stereo not given) | -0.0205 | 3.5
CN1C(=O)CC[C@H]1c1cccnc1 | 0.949&0.183&2.26&0.762 | -1.5&-3.7
COc1ccc(C2CC(SCC(=O)c3ccccc3)=Nc3ncnn32)cc1 (stereo not given) | -0.552 | 1.3
CN1C(=O)C2(NC(=O)c3ccccc3O2)c2ccccc21 (stereo not given) | . | 2.5
O=C(NCC1CCCO1)c1cccc(N2C(=O)C3C4C=CC(C4)C3C2=O)c1 (stereo not given) | -1.51 | 2.5
COCCNC(=O)c1cc2c(=O)[nH]c3ccccc3c2s1 | -0.635 | 3.6

Not all compounds are listed; count on the stated rates, not on these rows.
